Assay outcomes as filed in PubChem.
TRPML1 blocker = blocks the human TRPML1 channel. 390,000 compounds, 0.02% hits. activity change, negative = inhibition, % (concentration not given with the values). TRPML1-inducible cells, Ca2+ dye fluorescence, FDSS; stronger effect = lower value; inhibition of EC80 agonist-evoked calcium signal; in the data active means activity change below about -50%; inconclusive means about -30% to -50%; inactive means above about -30%;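 note: stimulus is agonist 54-4 at its EC80 concentration; % is set by controls: 0 for no effect and ±100 for the full control effect; the text of the record puts the active cut at -80%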
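Calcium fluorescence in TRPML1-DL cells induced overnight with Tet: a 110 s read after compound pin addition, then a 110 s antagonist read after challenge with 54-4 at 4 uM final (EC80).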
ClpP mod = qHTS Assay for Activators of ClpP | Potency, µM (highest dose often 57.5 µM), without a hit: top-dose activity change, negative = active | 340,000 compounds, 1.9% hits | purified B. subtilis ClpP, FRET peptide cleavage, 20 min | AID 651965, 2013; active = well fitted falling curve with a large enough effect; inconclusive = small, poorly fitted or top-dose-only effect; inactive = no such curve, though single readings can be large or run the other way; note: potency is the fitted concentration of half-maximal effect; the source files actives as falling curves though it sought activators and does not explain the sign; nearly all actives have a fitted effect of over 65% in size; many hits overshoot -100%
Target sequence (P80244 whole entry, looked up): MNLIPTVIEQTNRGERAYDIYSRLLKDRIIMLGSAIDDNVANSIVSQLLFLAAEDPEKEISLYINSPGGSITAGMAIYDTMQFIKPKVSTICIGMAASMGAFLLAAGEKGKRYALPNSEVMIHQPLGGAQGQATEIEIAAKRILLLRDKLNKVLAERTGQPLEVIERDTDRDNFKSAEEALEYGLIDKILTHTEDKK
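ClpP 10 microg/mL final, pH 8 Tris/KCl buffer with BSA, glycerol, Tween-20; compound pinned in; FRET-FV substrate; RT 20 min; Ex320/Em430; ΔFRET vs ADEP 5.8 microM, DMSO, no enzyme.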
gsp agonist = gsp mutant agonism. Potency, µM (doses to about 76.9 µM), for the others: top-dose activation (cAMP increase), most hits filed as activators. gsp mutant cells, cAMP HTRF, 30 min; control for the full effect not named in the record. 340,000 compounds, 0.13% hits. AID 624287; active = well fitted activation curve with a large enough effect; inconclusive = small, poorly fitted or top-dose-only effect, or another doubt; inactive = no such curve, though single readings can be large or run the other way; cell line not stated here;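 note: phosphodiesterase inhibitor Ro 20-1724 added with compounds to block cAMP breakdown; potency is the fitted concentration of half-maximal effect; nearly all actives have a fitted effect of over 60% in size; about a fifth of the inactives were tested at one dose only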
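Cells stably selected in G418 were plated at 2000/well, grown 16-24 hr, then given compounds in DMSO with the PDE inhibitor […] (300 uM solution added) for 30 min at 37C; cAMP was read by HTRF.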
gsp antag = antagonizes gsp, the McCune-Albright syndrome mutation; gsp-mutant cells, cAMP HTRF, 30 min; control for the full effect not named in the record; Potency, µM (top dose mostly 76.9 µM), inactives show at the highest dose activity change, negative = inhibition, usual class: inhibitors; 340,000 compounds, 0.4% hits; active = falling curve of any shape with a large fitted effect; inconclusive = falling curve, mostly with a smaller effect; inactive = flat or rising curve; cell line not stated here;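 note: intracellular cAMP measured with PDE inhibitor Ro 20-1724 present during compound exposure; potency is the fitted concentration of half-maximal effect; % is set by controls: 0 for no effect and ±100 for the full control effect; nearly all actives have a fitted effect of over 65% in size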
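Cells, 2000/well, grown 16–24 h in DMEM 10% FBS with 0.5 mg/ml G418, then compounds plus […] (300 uM addition stock), 30 min at 37C. cAMP read by HTRF (cAMP-d2 and anti-cAMP antibody-K in lysis buffer) after 30 min RT.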
TRPV1 PAM = potentiators of human vanilloid receptor 1 (TRPV1). 320,000 compounds, 0.02% hits. TRPV1-expressing cells, Fluo-8 calcium influx, capsaicin EC20 potentiation; host cell line not named in the record; control for the full effect not named in the record. potentiation, % at 8.33 µM. AID 540277; active means potentiation above 80%; inconclusive means 30% to 80%; inactive means below 30%; note: 0% is about no effect
Target sequence (Q8NER1 whole entry, looked up): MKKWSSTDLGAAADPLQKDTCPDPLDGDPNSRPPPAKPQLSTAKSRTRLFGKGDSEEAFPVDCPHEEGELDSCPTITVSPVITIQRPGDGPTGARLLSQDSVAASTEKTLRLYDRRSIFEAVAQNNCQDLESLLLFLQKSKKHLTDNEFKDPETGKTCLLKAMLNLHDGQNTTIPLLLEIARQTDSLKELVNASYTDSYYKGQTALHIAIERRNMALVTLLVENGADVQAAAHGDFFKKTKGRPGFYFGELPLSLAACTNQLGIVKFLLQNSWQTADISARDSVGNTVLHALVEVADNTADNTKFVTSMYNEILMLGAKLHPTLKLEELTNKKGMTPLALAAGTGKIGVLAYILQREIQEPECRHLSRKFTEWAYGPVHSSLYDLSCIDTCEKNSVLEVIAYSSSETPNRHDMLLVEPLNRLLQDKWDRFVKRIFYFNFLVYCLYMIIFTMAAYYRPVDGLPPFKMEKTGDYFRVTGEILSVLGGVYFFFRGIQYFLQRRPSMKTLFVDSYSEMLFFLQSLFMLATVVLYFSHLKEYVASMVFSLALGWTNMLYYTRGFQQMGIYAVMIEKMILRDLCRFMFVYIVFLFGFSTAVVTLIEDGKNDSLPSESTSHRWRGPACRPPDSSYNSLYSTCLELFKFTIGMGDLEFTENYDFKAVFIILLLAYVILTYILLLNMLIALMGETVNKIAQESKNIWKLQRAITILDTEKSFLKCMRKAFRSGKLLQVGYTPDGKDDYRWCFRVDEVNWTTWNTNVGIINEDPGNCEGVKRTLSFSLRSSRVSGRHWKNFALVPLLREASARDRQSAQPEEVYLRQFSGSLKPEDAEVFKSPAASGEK
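Cells expressing TRPV1 were dye-loaded with Fluo-8 and read kinetically: 10 s baseline, 3 min after compound (agonist portion), then 2 min after EC20 capsaicin (allosteric enhancer portion). Calcium-bound dye fluorescence at 480/520 nm.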
Menin MLL FP FL = menin-MLL binding inhibition, fluorescein peptide. Fluorescence polarization, fluorescein-MLL peptide displacement from menin. FP activity change, % at 61.4 µM. 290,000 tested, under 10 active; inconclusive = falling polarisation curve, or a change in total fluorescence; inactive = total fluorescence flat and polarisation flat or rising; no compound was filed as active; the % refers to the polarisation; negative = inhibition;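 note: % of control where 0% means no effect; inhibitors lower the polarisation; unlabelled MLL peptide was the positive control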
Sfp PPTase inh = inhibitors of Bacillus subtilis Sfp phosphopantetheinyl transferase | Potency, µM, for inactives: max response, negative = inhibition, hits mostly inhibitors | 310,000 compounds, 3.5% hits | Biochemical Sfp PPTase activity, qHTS | AID 1490 | Q9F4F7; active = well fitted inhibition curve with a large enough effect; inconclusive = small, poorly fitted or top-dose-only effect, or another doubt; inactive = no such curve, though single readings can be large or run the other way;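 note: the enzyme is Sfp with the accession as filed and its product quenches rhodamine fluorescence; potency is the fitted concentration of half-maximal effect; 0% = enzyme reaction without inhibitor and -100% = no enzyme wells; top concentration of the series not given in the record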
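Reaction rates are the 30-min fluorescence difference (ex 525, em 598 nm) in wells containing 15 nM Sfp, 5 uM rhodamine-CoA and 12.5 uM BHQ-2-YbbR at pH 7.6 with 10 mM MgCl2.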
* hit, by the source's call; ? = inconclusive; . = not tested or not shown; & = joins results of further samples; [ ] = remark or other dose.

SMILES	TRPML1 blocker	ClpP mod	gsp agonist	gsp antag	TRPV1 PAM	Menin MLL FP FL	Sfp PPTase inh
COc1cc(OC)cc(C(=O)N2CCC(C(=O)c3ccc(F)cc3)CC2)c1	-11	-0.8%	5%[15.4 µM]	-6%	0	0.4	9%
CCc1cc(=O)oc2cc(OCC(=O)N3CCC(C(=O)O)CC3)ccc12	.	4.3%	.	12%	4	-3.3	10%
COc1ccc(N2CCN(C(c3cc4ccc(C)cc4[nH]c3=O)c3nnnn3C3CCCC3)CC2)cc1 (stereo not drawn)	13	-8.9%	-32%	4%	-3	4.8	6%
O=Cc1nc(-c2ccccc2Cl)n2ccccc12	-2	-3.6%	?	1%	-9	4.2	7%
CC1CN(S(=O)(=O)c2cccc(C(=O)NN3CCN(C)CC3)c2)CC(C)O1 (stereo not drawn)	2	-0.6%	-29%	0%	-2	-0.7	7%
C=C(C)CNC(=S)/N=c1\scc(C)n1CC	2	8.9%	30%	-28%	-4	2.7	6%
O=C(Cc1cccs1)NCc1cccc(CNC(=O)Cc2cccs2)c1	5	-0.5%	-24%	8%	-6	-6.3	-1%
CCn1cc(C(=O)NC2CCCCCC2)c(=O)c2cc(S(=O)(=O)N3CCCCC3)ccc21	13	-1.7%	-49%[inhibitor]	-11%	.	.	.
COc1ccc2cc(Br)ccc2c1CC(=O)NC(C)C	4	.	2%[15.4 µM]	.	14	-6.1	10%
Cc1ccccc1NC(=O)COC(=O)/C=C/c1cn(-c2ccccc2)nc1-c1cccnc1	2	?	24%[15.4 µM]	-4%	9	15	?
COc1ccc(CCNC(=O)c2ccc(=O)[nH]n2)cc1OC	-1	-2.0%	-2%	0%	-1	1.2	-9%
CCN(CC)C(=O)Cc1cn(C)c2ccccc12	3	-20%	?	9%	13	-1.7	21%
CCOc1ccc(C(=O)c2cccs2)cc1	-7	-1.9%	17%	-5%	8	3.1	7%
Nc1ncnc(NNC(=O)CNC(=O)c2c(F)cccc2Cl)c1[N+](=O)[O-]	-14	.	4%[15.4 µM]	10%	-7	1.0	-45%
C=C(C)COC(=O)c1ccccc1C(=O)OCC1(C)CO1 (stereo not drawn)	-13	-1.7%	-62%[inhibitor]	6%	.	.	.
OCCC1CN(Cc2ccn[nH]2)CCN1Cc1ccc(F)c(F)c1 (stereo not drawn)	-3	.	-2%	11%	4	-1.4	9%
CC1CCCC(C)N1C(=O)COc1ccc(-c2nnco2)cc1 (stereo not drawn)	1	-0.3%	6%	16%	3	-4.7	3%
Cc1c(CN2CCc3c([nH]c4ccccc34)C2CC(C)C)cnn1C (stereo not drawn)	10	?	0%	-7%	7	0.7	18%
N#Cc1ccc(NC(=O)CCc2ccc(S(=O)(=O)N3CCOCC3)cc2)cc1	5	5.3%	0%	-11%	-8	3.5	-2%
C=CCNC(=O)COC(=O)COc1ccc(Cl)cc1C	-14	-7.4%	-5%	2%	-16	-3.2	0%
Cc1ccc(CSc2nc3c(cc2C#N)CCC3)cc1	-8	?	?	1%	5	-1.3	7%
COc1cc(CNn2c(C)n[nH]c2=S)cc(Br)c1OCC(=O)NC(C)(C)C	-2	0.4%	2%	3%	-4	5.8	-6%
CCOc1ccc(S(=O)(=O)Nc2ccccc2C(=O)N2CCOCC2)cc1	5	.	8%[15.4 µM]	8%	4	2.9	21%
O=C(CNC(=O)c1ccc(Cl)cc1)NNc1c(F)c(F)cc(F)c1F	-3	.	0%	5%	.	.	.
CCn1c(=O)c2cc(C(=O)N(C)c3ccc(OC)cc3OC)sc2c2ccccc21	-26	-5.5%	-46%	-18%	.	0.4	-1%

Next section.
SMILES	TRPML1 blocker	ClpP mod	gsp agonist	gsp antag	TRPV1 PAM	Menin MLL FP FL	Sfp PPTase inh
CNC(=S)N1CCc2cc(OC)c(OC)cc2C1	-19	.	21%[15.4 µM]	2%	9	?	-2%
CC1(C)C(=O)Nc2ccccc2N1C(=O)COC(=O)Cc1c(F)cccc1Cl	16	-1.2%	-2%	-5%	-4	.	.
N/C(=N/OCc1cccc([N+](=O)[O-])c1)c1nonc1N	12	11µM*	?	8%	20	3.2	?
COc1ccc(OC)c(S(=O)(=O)NCc2ccccn2)c1	.	-0.9%	-17%	9%	0	-9.6	7%
CC(OC(=O)/C=C/c1cccc(F)c1)C(=O)NC1CCCCC1C (stereo not drawn)	-13	0.2%	-47%[inhibitor]	-1%	-3	.	20%
O=C(O)c1cc([N+](=O)[O-])ccc1NCCc1ccccc1	4	-3.1%	-7%[15.4 µM]	-21%	16	3.0	-5%
COc1cc(S(=O)(=O)N2CCN(C)CC2)c(OC)cc1Br	-9	-1.1%	-22%	3%	0	-0.6	2%
COc1ccc(CN(CC2CCCO2)C(=O)CN2C(=O)C(C)Oc3ccc(C)cc32)cc1OC (stereo not drawn)	-9	0.1%	20%	-28%	-16	1.6	-6%
CC(=O)NC(NC(C)=O)c1ccc(N(C)C)cc1	-2	-3.4%	28%	-1%	3	7.0	12%
CC(=O)c1c(C)[nH]c(C(=O)OCC(=O)NC(C)c2ccccc2)c1C (stereo not drawn)	58	-2.3%	-2%	.	.	.	.
COc1ccc(S(=O)(=O)NC(N)=NCCc2ccccc2)cc1	5	1.1%	?	-4%	17	-0.8	18%
Cc1c(C(=O)OCCN2CCCCC2)oc2ccccc12	-12	-25%	-20%	2%	-5	2.3	17%
Cc1cnc(NC(=O)Cc2c[nH]c3ccccc23)s1	61	-2.9%	15%	8%	?	2.4	-2%
Cc1noc(C)c1C(=O)Nc1sc2c(c1C(N)=O)CCC2	-4	-18%	24%	2%	3	3.0	13%
O=C(NC(=S)Nc1ccc(S(=O)(=O)N2CCCC2)cc1)C1CCC1	1	1.5%	-6%	-7%	-1	-2.1	2%
Cc1nn(-c2ccccc2)c(Cl)c1C1C(C#N)=C(N)Oc2n[nH]c(C)c21 (stereo not drawn)	-4	-1.4%	0%	1%	0	0.4	11%
O=C(CN1CCN(c2ccc(F)cc2)CC1)NCc1cccs1	9	-0.4%	1%[15.4 µM]	10%	-15	-1.5	?
COC(=O)CNC(=O)C(Cc1c[nH]c2ccccc12)NC(=O)OC(C)(C)C (stereo not drawn)	5	0.5%	-15%	1%	20	4.8	7%
COc1cc(C2Nc3cccc4cccc(c34)N2)cc(OC)c1O	25	?	-22%	4%	16	?	50µM*
Cc1cn([C@H]2C[C@H](O)[C@@H](CCC(=O)NCCN3CCCCC3)O2)c(=O)[nH]c1=O	-7	1.3%	.	9%	.	.	.
O=C(COC(=O)c1cc(=O)c2ccccc2o1)NCc1ccccc1	23	.	9%[15.4 µM]	1%	-15	.	.
Cc1onc(-c2ccccc2)c1C(=O)NC1CCC(C)CC1 (stereo not drawn)	-8	0.1%	-25%	-6%	-8	.	.
CCC(C(=O)NC(CC(=O)O)c1ccc(Cl)cc1)c1ccccc1 (stereo not drawn)	.	-1.1%	-18%	-11%	1	-4.7	9%
Cc1csc2c(N3CCN(C(=O)Nc4ccccc4)CC3)ncnc12	15	-2.0%	-3%[15.4 µM]	?	-11	5.4	11%
O=C(c1ccc2c(c1)OCCO2)N1CCCCC1	43	0.1%	7%	3%	-7	5.2&1.5	10%

(next part)
SMILES	TRPML1 blocker	ClpP mod	gsp agonist	gsp antag	TRPV1 PAM	Menin MLL FP FL	Sfp PPTase inh
O=C(NCc1ccco1)c1cccc(C(F)(F)F)c1	3	1.2%	-10%	3%	1	5.7	7%
Cc1ccc(C(=O)Oc2ccc(C(=O)COC(=O)c3cnccn3)cc2)cc1	8	-2.8%	-22%	13%	10	-0.8	19%
CCc1cccc(CC)c1NC(=O)CN1C2CCCC1CC(NC(=O)Nc1cccc(OC)c1)C2 (stereo not drawn)	12	-3.0%	-3%[15.4 µM]	-23%	-6	-2.5	-8%
COc1ccc2c(c1OC)C(=O)N1C2SC(C)(C)[C@H]1C(=O)NCCCOC(C)C (stereo partly drawn)	-8	-27%	?	-2%	-6	-5.6	-23%
NC(=O)c1nn(-c2ccccc2)nc1NC(=O)CSc1nnnn1-c1ccc(Cl)cc1	-18	-1.7%	-16%[15.4 µM]	-10%	12	4.1	-10%
CCc1noc(C)c1C(=O)NC1CCCc2c1cnn2-c1cc(C)cc(C)c1 (stereo not drawn)	21	-4.4%	-13%	-14%	-12	-11	14%
Cc1occc1C(=O)Nc1c(Cl)cccc1Cl	-5	1.0%	-8%	6%	14	-0.5	4%
CCOC(=O)c1ccc(NC(=S)N2CCCC2c2ccc(OC)c(OC)c2)cc1 (stereo not drawn)	6	.	-1%	2%	-4	-0.8	19%
CC(C)(C)c1ccccc1OCCOCCSc1ncccn1	-8	-1.4%	-1%	-19%	13	-3.2	-2%
Nc1nonc1-c1noc(-c2ccc(Br)o2)n1	28	-0.1%	?	6%	27	-0.8	6%
CC[N+]1(CC)CC2=Cc3c(ccc4ccccc34)CC2C1 (stereo not drawn)	-14	25µM*	?	-3%	2	5.1	-1%
O=C(/C=C/c1cccc([N+](=O)[O-])c1)NC1CC2CCC1C2 (stereo not drawn)	-7	-1.4%	5%	3%	-6	4.0	-20%
COc1cc(CNCc2ccccn2)ccc1OCC(=O)NC(C)(C)C	13	0.6%	6%	12%	-21	0.9	-22%
CCC(C)NC(=O)c1ccc(C)c(NC(=O)C2=C(C)OCCS2)c1 (stereo not drawn)	25	1.1%	29%	17%	-10	-0.4	5%
O=C(NCc1ccc2c3c(cccc13)C(=O)N2)c1cccs1	-6	-2.6%	26%	10%	19	0.6	13%

Grouped by structure: the compounds so far containing an aryl thioether with sulfur outside any ring
SMILES	TRPML1 blocker	ClpP mod	gsp agonist	gsp antag	TRPV1 PAM	Menin MLL FP FL	Sfp PPTase inh
Cc1ccc(CSc2nc3c(cc2C#N)CCC3)cc1	-8	?	?	1%	5	-1.3	7%
NC(=O)c1nn(-c2ccccc2)nc1NC(=O)CSc1nnnn1-c1ccc(Cl)cc1	-18	-1.7%	-16%[15.4 µM]	-10%	12	4.1	-10%
CC(C)(C)c1ccccc1OCCOCCSc1ncccn1	-8	-1.4%	-1%	-19%	13	-3.2	-2%
